Screening results: PubChem, National Center for Advancing Translational Sciences (NCATS)
HPGD block – HPGD (human) dehydrogenase inhibition; purified HPGD, NADH fluorescence kinetic, PGE2 substrate; Potency, µM, for the others: at the highest dose activity change, negative = inhibition, hits mostly inhibitors; 150,000 compounds, 4.3% hits; AID 894; active = well fitted inhibition curve with a large enough effect (not every such curve was filed as active); inconclusive = small, poorly fitted or top-dose-only effect, or another doubt; inactive = no such curve, though single readings can be large or run the other way;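 also: top concentration of the series not given in the record; plate controls included wells without enzyme; inactives centre near -10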
Target sequence (P15428 whole entry, looked up): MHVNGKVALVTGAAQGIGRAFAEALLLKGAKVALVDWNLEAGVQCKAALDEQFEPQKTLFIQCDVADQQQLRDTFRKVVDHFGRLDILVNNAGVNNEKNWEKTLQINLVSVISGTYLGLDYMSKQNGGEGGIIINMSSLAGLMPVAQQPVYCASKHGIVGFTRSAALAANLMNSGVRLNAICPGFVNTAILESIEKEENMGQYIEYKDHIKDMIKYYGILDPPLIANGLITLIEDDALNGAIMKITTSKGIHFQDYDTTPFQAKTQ
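20 nM HPGD preincubated 15 min at room temperature with compound in 50 mM Tris-HCl pH 8, 0.01% Tween 20. Started with 1 mM NAD+ and 30 uM prostaglandin E2; NADH fluorescence (360/450 nm) read 5 times over 30-s intervals, last minus first.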
* marks the source's active call; other numbers are inactive results; ? = inconclusive; [ ] = dose if it differs, or a comment. % is scaled to controls: 0 for no effect and ±100 for the full control effect; potency is read from the fitted curve at half-maximal effect. Not all compounds are listed; count on the stated rates, not on these rows.

Start of the data: the first five entries as a preview:
HPGD block | structure
? | Cc1cccc(NC(=O)c2cnc3sccn3c2=O)c1C
-4.6% | O=C(CSc1ccccn1)Nc1nc2ccccc2s1
-4.8% | CCN(CC)c1ccc(-n2c(C)c(C(C)=O)c(C(C)=O)c2C)cc1
-3.3% | CCOC(=O)C1=C(Cn2cnc3ccccc32)NC(=O)NC1c1ccc(OC)cc1 (stereo not given)
-4.7% | C=CCOc1c(Br)cc(CNc2ccc(NC(=O)C(C)C)c(OC)c2)cc1OC

The whole of this part, repeating the preview:
HPGD block | structure
? | Cc1cccc(NC(=O)c2cnc3sccn3c2=O)c1C
-4.6% | O=C(CSc1ccccn1)Nc1nc2ccccc2s1
-4.8% | CCN(CC)c1ccc(-n2c(C)c(C(C)=O)c(C(C)=O)c2C)cc1
-3.3% | CCOC(=O)C1=C(Cn2cnc3ccccc32)NC(=O)NC1c1ccc(OC)cc1 (stereo not given)
-4.7% | C=CCOc1c(Br)cc(CNc2ccc(NC(=O)C(C)C)c(OC)c2)cc1OC
? | COc1ccccc1NS(=O)(=O)c1cc(NC(=O)Nc2ccc(Cl)cc2Cl)ccc1N1CCCCC1
-11.6% | O=C(CSc1ccccn1)Nc1nc2c(ccc3ccccc32)s1
-24.8% | O=C(Oc1ccc(N(Cc2cccs2)C2=NS(=O)(=O)c3ccccc32)cc1)c1ccccc1
-4.7% | O=C(NCC1(c2ccccc2)CCCC1)C(=O)N1CCOCC1
-3.8% | O=C(CCN1C(=O)/C(=C/c2ccc3c(c2)OCO3)SC1=S)Nc1ccccc1
-21.7% | CCOc1ccc(Cl)cc1CSc1n[nH]c(CC)n1
-16.2% | COc1ccc(CCNC(=O)c2c(C)cc(=O)oc2C)cc1OC
-10.0% | Cc1ccc(N2C(=O)C(NC(=O)c3ccccc3)(C(F)(F)F)C3=C2CC(C)(C)CC3=O)cc1 (stereo not given)
2.5% | Cc1cccc(NC(=S)NCC(c2cccnc2)N2CCOCC2)c1C (stereo not given)
1.3% | O=C(Cn1cc2c(n1)CCCC2)NCCCN1CCN(Cc2ccccc2)CC1
-6.3% | CCOC(=O)CCc1n[nH]c(=O)[nH]c1=O
273.7%[activator] | CC(=O)COc1ccc2c(C)c(C)c(=O)oc2c1
0.5% | CCCN(C/C=C\I)[C@@H]1CCc2cccc(O)c2C1
-8.3% | O=C(CN1CCOCC1)Nc1nc2cc([N+](=O)[O-])ccc2s1
-6.3% | Cc1ccc(S(=O)(=O)NNC(=O)C(=O)NNc2ccccn2)cc1
? | Cc1cccc(C(=O)NC(=S)Nc2ccc(Cc3ccncc3)cc2)c1
-3.0% | CC1(C)C(c2ccccc2)=[N+]([O-])CN1O
1.2% | Cc1ccc(C2Nc3ccccc3NC3=C2C(=O)OC(C)C3)cc1 (stereo not given)
-4.5% | COc1ccc(/C=N/Nc2nncc3ccccc23)c(OC)c1
-6.0% | C#CCNc1cc(C)nc2ncnn12
-4.4% | O=C1CNC(=O)/C1=C\N1CCN(C(c2ccccc2)c2ccccc2)CC1
-15.1% | COc1ccc(-c2cn3c(C)c(C(=O)N4CCN(c5ccc(F)cc5)CC4)sc3n2)cc1
-5.0% | CC(=O)N(Cc1ccc(F)cc1)C1=C(NCCc2ccccc2)C(=O)c2ccccc2C1=O
-14.3% | O=C(CN1CCN(S(=O)(=O)c2ccccc2)CC1)Nc1ccc2c(c1)CCC2
-7.1% | CC1(C)OC(=O)C(=CNc2ccccc2F)C(=O)O1

Quoted at random: three entries already listed
HPGD block | structure
? | Cc1cccc(C(=O)NC(=S)Nc2ccc(Cc3ccncc3)cc2)c1
1.2% | Cc1ccc(C2Nc3ccccc3NC3=C2C(=O)OC(C)C3)cc1 (stereo not given)
-4.4% | O=C1CNC(=O)/C1=C\N1CCN(C(c2ccccc2)c2ccccc2)CC1

The results go on.
HPGD block | structure
-4.6% | CCCNC(=O)NC(=O)COC(=O)CC(NC(N)=O)c1ccc(Cl)cc1 (stereo not given)
-12.8% | CCCNC(=O)OC[C@H]1O[C@H](CCO/N=C/[C@@H](NS(=O)(=O)c2ccc(C)cc2)[C@H](C)/C=C/CC(=O)OC)C=C[C@@H]1Oc1ccc(OC)cc1
? | COc1ccc(-c2nn(-c3ccccc3)cc2/C=N/NC(=O)c2cccc(S(=O)(=O)Nc3ccccc3Cl)c2)cc1
-10.8% | O=C(CN1CCOCC1)Nc1scc(-c2ccccc2)c1C(=O)N1CCOCC1
? | Cc1ccc(-c2ccnc3nc(Sc4ncc(C(F)(F)F)cc4Cl)nn23)cc1
? | Nc1nnc(CC(=O)N/N=C/c2ccc(-c3ccccc3)o2)s1
-11.1% | C/C(C[n+]1ccccc1)=N\N=C(N)N
? | Cc1cc(=O)oc2cc(OCC(=O)NCc3ccccn3)ccc12
-2.0% | CC(=O)Nc1c(C(=O)NCc2ccccc2)nnn1Cc1ccccc1
-6.8% | Cc1c(C(=O)OC2CCC(C)CC2)[nH]c2c1C(=O)CCC2 (stereo not given)
-8.6% | Cc1nc(NCc2ccco2)[nH]c(=O)c1CCC(C)C
-5.2% | CCOC(=O)c1c(C)[nH]c(C(=O)OCC(=O)Nc2cc(C)ccc2OC)c1C
-14.8% | CCOC(=O)CSCC(=O)Nc1c(C(=O)C2CC2)oc2ccccc12
-22.6% | COc1ccc(-c2csc3nc(-c4ccccc4F)oc(=O)c23)cc1OC
17.8µM* | O=C(O)Cn1cc(C(=S)N2CCOCC2)c2ccccc21
-13.7% | Cc1c(C(=O)NCCSc2ccc(Cl)cc2)cccc1[N+](=O)[O-]
-26.1% | O=C(COC(=O)CN1C(=O)C(=O)c2ccccc21)OCN1C(=O)c2ccccc2C1=O
-5.3% | CCOc1ccccc1NS(=O)(=O)c1ccc(Br)s1
-15.4% | O=C(NCCCn1ccnc1)c1ccccc1NS(=O)(=O)c1ccc(F)c(F)c1
-23.0% | Cc1ccc(OCCN2CCN(c3ncnc4sc(C)c(C)c34)CC2)cc1
-8.7% | CN(C)Cc1ccccc1-c1cncnc1Nc1ccc(F)cc1
4.1% | O=c1nc(N2CCOCC2)nc2n1CCO2
-12.0% | O=C(N/N=C/c1cccs1)/C(=C/c1ccccc1)NC(=O)c1ccccc1
-6.3% | CC(=O)c1ccc(N(C(=O)Cn2nnc3ccccc32)C(C(=O)NC2CCCCC2)c2cn(C)nc2C)cc1 (stereo not given)
-21.0% | CC(C)(C)NS(=O)(=O)c1ccc2c(c1)oc(=O)c1cc(S(=O)(=O)NC(C)(C)C)ccc12
-5.9% | C=CCn1c(-c2c(C)nc3cc(C)ccn23)n[nH]c1=S
? | O=C(COC(=O)c1cccc(S(=O)(=O)NCc2ccccc2)c1)c1ccc2c(c1)OCCO2
-20.7% | CC(C)CC(=O)Nc1cccc(-c2csc(-c3ccccc3)n2)c1
-10.7% | CCCCNS(=O)(=O)C1CCS(=O)(=O)C1 (stereo not given)
-7.1% | Cn1nnnc1SCC(=O)Nc1ccccc1C(=O)NC1CC1
-9.4% | CC1Cc2ccccc2N1C(=O)CSc1nc(-c2ccccc2)cs1 (stereo not given)
? | Cc1ccc(C)c(-c2ccc(C(=O)O)o2)c1
-14.2% | Cc1ccc(CNc2ccc(N3CCOCC3)c(C(=O)O)c2)s1
-12.1% | O=C(NC(=S)NC(c1ccccc1)c1ccncc1)c1ccccc1 (stereo not given)
-9.6% | O=C(Nc1ccccc1Oc1ccccc1)c1cnccn1
-7.3% | COc1cc(C(c2nnnn2C2CCCC2)N2CCN(C)CC2)cc(OC)c1OC (stereo not given)
-24.1% | N#C/C(=C/c1ccc(N2CCOCC2)o1)C(=O)N1CCOCC1
-16.9% | CCOC(=O)c1cccc(NC(=O)CSc2nnc(COc3ccccc3C)o2)c1
-6.7% | C=C1CCC2[C@](C)(CO)[C@H](O)CC[C@@]2(C)[C@@H]1C/C=C1/C(=O)OC[C@H]1O (stereo not given in full)
-17.9% | Cn1c(=O)oc2cc(S(=O)(=O)N3CCN(c4ccccn4)CC3)ccc21

Part of the list above in order of length of the SMILES, rising:
HPGD block | structure
-6.8% | Cc1c(C(=O)OC2CCC(C)CC2)[nH]c2c1C(=O)CCC2 (stereo not given)
-12.0% | O=C(N/N=C/c1cccs1)/C(=C/c1ccccc1)NC(=O)c1ccccc1
? | COc1ccccc1NS(=O)(=O)c1cc(NC(=O)Nc2ccc(Cl)cc2Cl)ccc1N1CCCCC1

Next compounds follow:
HPGD block | structure
-10.4% | COc1ccc(CN(C)CC(=O)Nc2ccc(Cl)cc2C(F)(F)F)c(OC)c1
-17.6% | CC(=O)Nc1ccc(S(=O)(=O)Oc2cccc(N3C(=O)C4CC=CCC4C3=O)c2)cc1 (stereo not given)
-6.4% | Cc1nnc2n(Cc3ccccc3)c(=O)c3c4c(sc3n12)CCCC4
-5.0% | Cc1cc2nccc(-c3ccco3)n2n1
-14.2% | COc1ccc(OC)c(NC(=O)C2COc3ccccc3O2)c1 (stereo not given)
? | Cc1c(NC(=O)C(C)OC(=O)c2cc3c4ccccc4n(C)c3s2)c(=O)n(-c2ccccc2)n1C (stereo not given)
-17.4% | Cc1cc(C)c(S(=O)(=O)N(C)CC(=O)NC2CCCC2)c(C)c1
-5.3% | CC1CCN(c2nc3c(c(=O)[nH]c(=O)n3C)n2CC(C)CSc2nnnn2-c2ccccc2)CC1 (stereo not given)
-11.8% | COC/C=C/C1=CC2=CC(=O)C(C)(OC(=O)c3cnc4ccccc4n3)C(=O)C2=CN1Cc1ccccc1 (stereo not given)
-9.7% | Cn1c(SCC(=O)NCCc2ccccc2)nnc1-c1ccco1
-18.8% | COc1cc(Cn2c(C(=O)O)cc3sccc32)cc(OC)c1OC
-10.2% | CCCCC[C@H](O)/C=C/[C@@H]1[C@@H](C/C=C\CCCC(=O)OC)[C@@H](O)C[C@H]1O
-9.3% | O=c1[nH]c(CN2CCN(c3ccc(F)cc3)CC2)nc2ccccc12
-11.1% | Cc1nc2nc3c(c(=O)n2[nH]1)CCCC3
-6.8% | COc1ccc(N(CC(=O)N2CCCCC2)S(=O)(=O)c2c(C)nn(C)c2C)cc1
-3.8% | CC(C)C1CC(c2csc(N)n2)CCO1 (stereo not given)
-0.1% | CC1CCC2(CC1)NC(CO)(CO)CO2 (stereo not given)
-5.4% | C=C(C)C1Cc2c(C)nn(-c3cccc4ccccc34)c2C1 (stereo not given)
? | O=C(CSc1nnc2ccccn12)N1CCOCC1
1.1% | CC(C)(C)NC(=O)c1cc(NC(=O)c2ccco2)cc(NC(=O)c2ccco2)c1
-6.2% | CCn1ncc([N+](=O)[O-])c1C(=O)Nc1cc(C)on1
? | C#CCSc1nsc(SCC#C)c1C#N
-7.2% | COc1ccc(S(=O)(=O)N2CCn3c2nc2ccccc23)cc1
-10.8% | O=c1[nH][nH]c(-c2ccccc2)c1C=Nc1cccc(Cl)c1
-14.9% | CCCCCC(=O)Nc1nc(C)c(-c2csc(Nc3cc(Cl)ccc3C)n2)s1
-9.4% | N#C/C(=C(/O)COC(=O)c1ccc2c(c1)OCCO2)c1nc2ccccc2[nH]1
-8.4% | COC(=O)c1sccc1NC(=O)c1ccc(C)o1
-1.2% | CCOC(=O)C1=C(C)NC(=O)NC1c1ccc(NC(C)=O)cc1 (stereo not given)
-4.0% | C[C@@H]1c2ccccc2CN1CC1=NCCN1
1.8% | O=C(NNc1ccc(Cl)nn1)c1ccc(Cl)cc1

HPGD block: entries above that show a hit.
HPGD block | structure
17.8µM* | O=C(O)Cn1cc(C(=S)N2CCOCC2)c2ccccc21

(cont.)
HPGD block | structure
28.2µM* | Clc1ccccc1CSc1nnc(-c2cccnc2)n1Cc1ccco1
-7.1% | O=C(CCSc1nnc2scc(-c3ccccc3)n12)Nc1nc(-c2ccccc2)ns1
-21.1% | COc1ccc(-c2nc(CSCC(=O)N3CCN(C)CC3)c(C)o2)cc1OC
? | Nc1c(C(=O)NCCC2=CCCCC2)sc2ccc(S(=O)(=O)N3CCCCC3)cc12
? | Cc1oc2c(CN3CCCC3)c(O)ccc2c(=O)c1Oc1ccccc1Br
? | Cc1cnc(CNc2ncncc2-c2ccccc2C(F)(F)F)cn1
-9.2% | O=C(Nc1ccon1)C1CCN(S(=O)(=O)c2cccs2)CC1
-25.4% | CCCn1c(C)cc(-c2csc(N)n2)c1C
-0.5% | CC(C)C(=O)NC(C)C(c1cccs1)N1CCN(C)CC1 (stereo not given)
1.9% | CCC(=O)Nc1nnc(Sc2ccc(N(C)C)cc2)s1
-7.4% | CCOc1cc(CNc2ccc3c(c2)CCC3)ccc1O
-1.2% | COc1ccc(OC)c(C2CC(=O)c3c([nH]c(C(=O)OCC4CCCO4)c3C)C2)c1 (stereo not given)
-18.8% | CCCN1CN(Cc2ccccc2)CC2=C1CC(C)(C)CC2=O
-3.7% | O=S(=O)(c1ccccc1C(F)(F)F)N1CCC(n2cnc3ccccc32)CC1
-7.5% | N#CC(C(=O)C1CCCCC1)c1nc2ccccc2[nH]1 (stereo not given)
28.2µM* | O=C(/C=C/c1ccccc1Cl)NC(=S)Nc1ccccc1C(=O)NC1CCCCC1
-15.9% | O=C(C#Cc1cccc([N+](=O)[O-])c1)c1ccccc1
-1.3% | COC(=O)c1ccccc1S(=O)(=O)N1CCc2nc(COc3ccccc3)c3c(c2C1)CO[C@@H](C)C3
-0.7% | Cc1cc2nnn(-c3nnc(-c4ccccc4)c4ccccc34)c2cc1C
-3.9% | CCCCCCCCCOC1OC(CO)C(O)C(O)C1NC(C)=O (stereo not given)
-13.7% | CC1(C)NC(=O)N(CCCCOc2cccc(C(F)(F)F)c2)C1=O
-16.9% | CC(C)CCCCCCNC(=S)Nc1ccc(S(=O)(=O)N2CCOCC2)cc1
